Compound activity: PubChem, National Center for Advancing Translational Sciences (NCATS)
Rango complex inh – Rango-importin beta binding inhibition; Rango CFP/YFP FRET sensor + importin beta, 45 min; actives 0.031% (n = 340,000); Potency, µM (series often up to 92.2 µM), inactives show at the highest dose inhibition of complex formation; Q14974; active = rising FRET ratio curve, often small or poorly fitted; inconclusive = mostly compound fluorescence or quenching in the first reads; inactive = flat curves in all reads;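 also: potency is read from the fitted curve at half-maximal effect; 0% = DMSO wells and 100% = buffer wells lacking importin beta; nearly all actives have a fitted effect of over 15% in size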
Target sequence (Q14974 whole entry, looked up): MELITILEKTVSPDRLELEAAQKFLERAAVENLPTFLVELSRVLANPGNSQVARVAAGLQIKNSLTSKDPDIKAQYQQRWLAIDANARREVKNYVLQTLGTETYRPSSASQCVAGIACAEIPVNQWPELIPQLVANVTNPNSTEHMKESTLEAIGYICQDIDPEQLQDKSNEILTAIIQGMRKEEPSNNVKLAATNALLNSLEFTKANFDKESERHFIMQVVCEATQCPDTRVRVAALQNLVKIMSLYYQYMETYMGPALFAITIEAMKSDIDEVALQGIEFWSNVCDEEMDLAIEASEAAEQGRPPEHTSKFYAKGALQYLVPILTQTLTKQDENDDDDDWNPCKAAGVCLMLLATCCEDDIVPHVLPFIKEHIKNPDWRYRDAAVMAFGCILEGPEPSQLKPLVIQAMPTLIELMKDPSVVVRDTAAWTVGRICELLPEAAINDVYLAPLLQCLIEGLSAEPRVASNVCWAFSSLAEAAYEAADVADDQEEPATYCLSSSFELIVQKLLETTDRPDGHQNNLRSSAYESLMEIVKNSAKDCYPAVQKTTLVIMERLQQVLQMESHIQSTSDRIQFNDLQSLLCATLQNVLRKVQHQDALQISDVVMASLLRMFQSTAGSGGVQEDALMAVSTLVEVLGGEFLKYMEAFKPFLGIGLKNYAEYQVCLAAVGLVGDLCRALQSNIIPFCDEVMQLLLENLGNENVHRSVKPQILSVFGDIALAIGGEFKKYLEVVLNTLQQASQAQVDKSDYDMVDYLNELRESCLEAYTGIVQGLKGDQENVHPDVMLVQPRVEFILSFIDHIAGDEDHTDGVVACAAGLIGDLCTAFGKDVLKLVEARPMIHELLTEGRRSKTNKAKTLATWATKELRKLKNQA
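Inhibition scored from the CFP 486 nm/YFP 530 nm FRET ratio 45 min after adding 0.125 microM importin beta to 50 nM Rango biosensor preincubated 5 min with compound (room temperature, PBS with DTT, Tween-20, BSA). No-importin wells as positive control.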
Rango release inh – inhibitors of RanGTP-induced Rango-importin beta complex dissociation. Biochemical FRET Rango-importin beta, RanGTP-induced dissociation. Potency, µM (titrated, usually from 46.1 µM), without a hit: at the highest dose activity change, negative = inhibition. actives 0.071% (n = 340,000); active means falling FRET ratio curve, often poorly fitted, with flat reads before Ran was added; inconclusive means other falling curves, or compound fluorescence or quenching; inactive means flat or rising ratio curve;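 also: potency is read from the fitted curve at half-maximal effect; % of control where 0% means no effect; nearly all actives have a fitted effect of over 45% in size; -100% = wells without RanGTP and RCC1; the record marks most hits as doubtful in a second field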
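Quantitative HTS using a FRET biosensor: 0.1 uM Rango, 0.25 uM importin beta, 0.6 uM Ran, 2 mM GTP, 0.2 uM RCC1 final, PBS with DTT, Tween-20 and BSA. Post-read taken 45 min after Ran addition.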
miR-21 FLuc – miR-21 reporter, rising signal. HeLa miR-21 FLuc reporter, luciferase, 48 h. Potency, µM (titrated, usually from 38.3 µM), without a hit: top-dose reporter change, positive = more light. 340,000 tested, under 10 active. AID 2288; active = well fitted rising curve with a large enough effect; inconclusive = small, poorly fitted or top-dose-only effect; inactive = no such curve, though single readings can be large or run the other way;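 also: % of control where 0% means no effect; miR-21 action dims this reporter so a rising signal means less miR-21 action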
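Compounds were titrated across several concentrations (up to approximately 40 uM) and incubated 48 hours with HeLa miR-21-FLuc reporter cells (miR-21 target sequence downstream of FLuc, endogenous miR-21). Readout was firefly luciferase luminescence after lytic detection reagent.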
GLA inh pH 4.5 – blocks human alpha-galactosidase A at pH 4.5; P06280; purified enzyme, 4-MU-alpha-Gal fluorescence, pH 4.5; activity change, negative = inhibition, % at 105 µM; 230,000 tested, under 10 active; AID 1467; inconclusive = small, poorly fitted or top-dose-only inhibition, or a rising curve; inactive = flat fitted curve, though single readings scatter; no compound was filed as active;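 also: 0% = full activity with enzyme and -100% = basal without enzyme; dose as in the result columns while the protocol names 77 µM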
Starred values were filed as active, the others as inactive; ? = inconclusive; nt = no result given; & = joins results of further samples. Some of the compounds tested, so the mix of outcomes need not match the whole.

Results follow in this order: Rango complex inh, Rango release inh, miR-21 FLuc, GLA inh pH 4.5
Fc1ccccc1CCNc1nnnn1-c1ccccc1
    1.2%, -2%, 1%, 0
COC(=O)NNC(=O)c1ccccc1C
    2.3%, -5%, 1%, 8
Cc1ccc(CNC(=O)c2cc(C)nn2-c2ccccc2)cc1
    -1.5%, -9%, 8%, -4
C/C(=N/OC(=O)c1ccccc1)c1oc(C)nc1C
    2.3%, 27%, -1%, -11
Cc1ccc(O)c(CNc2cccc3cccnc23)c1
    -1.6%, 16%, -4%, 0
Cc1ccc2nc(SC(C)C(=O)N3CC(C)OC(C)C3)[nH]c2c1 (stereo unspecified)
    2.6%, 34%, -8%, 2
CCc1ccc(S(=O)(=O)NCCc2cn3cccc(C)c3n2)s1
    1.8%, -10%, 0%, 7
Cc1cc(OC(C)C(=O)NC(Cc2c[nH]c3ccc(O)cc23)C(=O)O)c2c(C)c(C)c(=O)oc2c1 (stereo unspecified)
    3.5%, -23%, -1%, nt
O=C(CN1C(=O)C2CC=CCC2C1=O)Nc1nc2ccccc2[nH]1 (stereo unspecified)
    ?, -4%, -2%, 1
COc1ccc(N2C(=O)CC(NCc3cccc(F)c3)C2=O)cc1 (stereo unspecified)
    3.5%, 22%, -6%, 7
Cc1cc(C(=O)Nc2cccc(C)c2C)n(-c2ccccc2)n1
    0.1%, 0%, -26%, nt
O=C(CO/N=C1\CCCc2nonc21)Nc1ccccc1Cl
    -2.6%, -11%, -19%, 7
CCOC(Cn1c(SCC(=O)Nc2cc(C)on2)nc2ccccc2c1=O)OCC
    -3.0%, -11%, -1%, nt
CCCn1nnnc1NCc1ccccc1OCC
    4.7%, 33%, -1%, nt
O=C(NCc1ccc(F)cc1)c1ccc(S(=O)(=O)N2CCCCC2)cc1
    -3.9%, 4%, nt, nt
Cc1cc(NS(=O)(=O)c2ccc(NC(=O)CSc3nc4ncc(Cl)cc4[nH]3)cc2)nc(C)n1
    7.3%, -3%, -3%, 11
CCCN(CCC)S(=O)(=O)c1ccc(C(=O)O)cc1
    ?, -12%, -2%, ?
CC(=O)N1CCN(C(=O)c2cc(-c3ccc(Cl)s3)nc3ccccc23)CC1
    ?, -2%, nt, nt
COc1ccc(N2C(=O)CC(N3CCC(O)(c4ccc(Br)cc4)CC3)C2=O)cc1 (stereo unspecified)
    0.5%, -5%, -1%, 4
COc1cc(NC(=O)Cn2cnc(C(=O)Nc3ccc(C)c(C)c3)n2)cc(OC)c1OC
    0.4%, 8%, nt, nt
COc1cc(C2N(c3cc(C)on3)C(=O)C3CCCN32)cc(OC)c1OC (stereo unspecified)
    1.3%, 4%, 1%, 3
COC(=O)C1=C(N)c2c(F)cccc2C1(C#N)c1ccc(F)cc1 (stereo unspecified)
    -0.1%, 0%, 3%, 3
Cc1ccc(C(=O)NC(=S)NNC(=O)COc2ccccc2C)cc1
    4.2%, 0%, -10%, 0
CCOc1ccccc1NC(=O)CCn1nc(C)c(S(=O)(=O)N2CCCCC2)c1C
    -1.8%, -8%, 5%&0%, nt
Cc1ccccc1OCc1nnc(SCC(=O)Nc2ccc3c(c2)OCO3)n1C
    -0.5%, -1%, -17%, 1
NC(=O)Cn1c(=O)n(Cc2ccco2)c(=O)c2c3c(sc21)CCCCC3
    0.1%, 0%, 0%, -1
O=C1C(=O)N(C2CCCC2)C(=O)N1Cc1c(F)cccc1Cl
    -4.8%, 20%, -12%, -18
O=S(=O)(Cc1ccccc1Cl)NCc1ccccc1
    -0.1%, 0%, -1%, 13
Clc1ccc(C2=Nn3c(nnc3-c3cccnc3)SC2)s1
    1.3%, 21%, -3%, 2
Cc1nc(SCC(=O)Nc2ccnc3ccccc23)n[nH]1
    -1.7%, -3%, 12%, 4
COc1ccccc1Nc1nc(-c2sc(NC(=O)c3ccccc3)nc2C)cs1
    -0.8%, -18%, -9%, -4
Cn1c(SCc2cccc(Br)c2)nc2ccccc2c1=O
    2.8%, 24%, -1%, nt
Clc1ccccc1Cn1nnc2c(NCC3CC3)ncnc21
    -1.4%, -16%, -23%, 3
S=C(NCCCc1ccccc1)NC1CCCCC1
    -3.4%, 9%, -28%, nt
COc1cc(OC)c(OC)cc1CNC(=O)CCN1C(=O)c2cccc([N+](=O)[O-])c2C1=O
    -0.2%, 10%, -2%, nt
Cc1ccccc1-c1nc(CS(=O)CC(=O)NCc2ccccn2)c(C)o1 (stereo unspecified)
    -2.0%, ?, -5%, nt
CCOC(=O)CSc1nc(C(C)C)nc2sc(C)c(C)c12
    3.7%, 10%, 4%, -6
CCC(=O)Nc1ccc(NC(=O)CSc2nnnn2-c2ccc3c(c2)OCCO3)cc1
    1.2%, ?, -1%, 2
CC(C)(C)OC(=O)NCCCC[C@@H](C(=O)NCCCCCCCCCCC(=O)N1CCN(C(=O)OC(C)(C)C)CC1)n1cc(CCO)nn1
    -3.8%, -2%, nt, nt
CC(=O)c1cccc(NC(=O)CCN2C(=O)C3C4CCC(C4)C3C2=O)c1 (stereo unspecified)
    0.0%, 1%, -1%, nt
CC(C)c1ccc(NC(=O)CSc2nc(-c3ccccc3F)nc3nc[nH]c23)cc1
    -1.4%, 0%, -10%, 1
CC1CN(S(=O)(=O)c2cccc(C(=O)OCC(=O)NCc3ccccc3)c2)CC(C)O1 (stereo unspecified)
    -2.8%, 11%, nt, nt
CC(=O)Nc1ccc(S(=O)(=O)N2CCc3c(Cl)cccc3C2)cc1
    -2.8%, 10%, 9%, 7
O=P1(Nn2cnnc2)C=C(c2ccccc2)OC(c2ccccc2)=C1
    -1.2%, -9%, -5%, -2
O=[N+]([O-])c1ccccc1S(=O)(=O)Oc1ccc(C(=S)N2CCOCC2)cc1
    -0.5%, 15%, -8%, -5
O=C(Nc1ncccc1O)c1ccc(Cl)c(S(=O)(=O)N2CCCCC2)c1
    0.7%, -3%, nt, nt
COCCCNC(=O)C(=O)NC1CCCCC1C (stereo unspecified)
    -1.3%, 24%, -1%, 0
C#CCN1C(=O)C(O)(CC(=O)/C=C/C=C/c2ccccc2)c2ccccc21 (stereo unspecified)
    -1.3%, -11%, -7%, -4
COc1cccc(CNC(=O)CCNS(=O)(=O)c2cccc3nonc23)c1
    -3.7%, 1%, 0%, nt
COc1ccc(C(C#N)=C2C=CC(=NO)C(C)=C2Cl)cc1
    -4.5%, -22%, nt, nt
O=c1ncn(-c2cccc(Cl)c2)c2ccccc12
    3.8%, -4%, nt, nt
Cc1cc(S(=O)(=O)N2CCCC2)ccc1OCC(=O)N1CCCCC1
    -1.3%, -10%, 3%, nt
CCC(CO)NC(=O)c1cccc(S(=O)(=O)N2c3ccccc3CC2C)c1 (stereo unspecified)
    2.3%, 7%, -5%, 3
NC(=S)N/N=C/c1ccc(-c2ccccc2)o1
    -3.0%, -16%, -36%, -4
Cc1cccc(OCC(=O)NCC(=O)N/N=C/c2ccccc2)c1
    -3.0%, -2%, -1%, nt
Nc1ccccc1SC1CC(=O)N(Cc2ccccc2)C1=O (stereo unspecified)
    -1.3%, 8%, -9%, 3
COc1ccc(C(CNC(=O)c2cccc(NS(=O)(=O)c3ccc(C)c(F)c3)c2)N(C)C)cc1 (stereo unspecified)
    9.0%, -11%, nt, nt
O=C(CNC(=S)N(Cc1ccccc1)Cc1ccccc1F)NCCc1ccc(Cl)cc1
    4.0%, 4%, 28%, -15
CCC(=O)N1c2ccc(S(=O)(=O)N3CCOCC3)cc2CC1C (stereo unspecified)
    -0.9%, -1%, -3%, nt
CCOC(=O)n1c(SCC(=O)N(CC)CC)nc2ccccc21
    -4.3%, -9%, -16%, -6

Carrying on.
Results follow in this order: Rango complex inh, Rango release inh, miR-21 FLuc, GLA inh pH 4.5
CC1(c2ccc(Cl)cc2)NC(=O)N(CC(=O)NCCC2=CCCCC2)C1=O (stereo unspecified)
    6.2%, -1%, nt, nt
Fc1cc(Br)ccc1Nc1nc2ccccc2n2nnnc12
    1.9%, -14%, -18%, 1
COc1cc(NC(=O)NCC2CCN(Cc3ccc(C)cc3)CC2)cc(OC)c1OC
    2.5%, 2%, -2%&-1%, nt
[O-][n+]1nc2ccccc2c2ccccc21
    -1.5%, 0%, nt, nt
CCCn1nc(C(=O)OCC(=O)Nc2ccc(C)cc2)c2ccccc2c1=O
    4.3%, -1%, nt, nt
C/C(=N/NC(=O)c1ccc2c(c1)OCO2)c1cccc(NC(=O)C(C)(C)C)c1
    -0.3%, -13%, -28%, 3
Cc1ccc(-c2nn(-c3ccccc3)cc2C(=O)NCCCN2CCOCC2)cc1
    -4.8%, -1%, -13%, nt
O=C(NC1CC2CCCC(C1)N2C(=S)Nc1ccccc1)C1CC1 (stereo unspecified)
    -1.5%, 10%, -5%, nt
COC(=O)C1=C(C)NC(=O)C1(Nc1nccs1)C(F)(F)F (stereo unspecified)
    0.0%, 0%, -2%, -1
Cc1c(Cl)c([N+](=O)[O-])nn1CCCC(=O)NCCc1ccccc1
    0.3%, 30%, -44%, 6
O=C(Cn1nnc(-c2ccccc2)n1)NCc1ccc2c(c1)OCO2
    -3.2%, -19%, 0%, 7
Cc1cc(S(=O)(=O)NCCCN2CCOCC2)ccc1Br
    3.6%, 10%, nt, nt
CCS(=O)(=O)N1CCN(c2ccc([N+](=O)[O-])c(N3CCOCC3)c2)CC1
    0.2%, 4%, -10%, 11
Cc1cccc(C(=O)Nc2ccccc2SCC2CSc3nc4ccccc4c(=O)n32)c1 (stereo unspecified)
    0.3%, 19%, 12%, -18
O=C(c1ccc2oc(CCCc3ccccc3)nc2c1)N1CCCCC1CO (stereo unspecified)
    -0.3%, -1%, -54%, nt
N/C(=N\OC(=O)COc1ccc2ccccc2c1Br)c1cccnc1
    nt, nt, -30%, 2
CC(C)(C)c1csc(NC(=O)CSC2=NCCS2)n1
    -3.7%, 1%, 1%, nt
COc1ccc(C2=NCCc3cc(OC)c(OC)cc32)cc1
    1.4%, -4%, -13%, -2
C=CCC(CC=C)(NC(=O)c1ccccc1C)c1ccccc1
    0.2%, 18%, 1%, 5
COc1ccc(CNC(=O)c2cc(C)nn2-c2ccccc2)cc1
    -2.5%, 12%, 7%, 0
Cc1cc2ccccc2n1CCNC(=O)c1ccc(Br)o1
    ?, ?, -27%, 0
CCOc1cccc(NC(=O)CC#N)c1
    -2.1%, 11%, 0%, -3
Cc1ccccc1-n1c(C)nnc1SCC(=O)NCC1CCCO1 (stereo unspecified)
    -5.2%, 4%, -5%, 3
Cc1nc(Cl)c2oc3ccccc3c2n1
    -0.5%, -15%, 7%, -7
O=C(CN1C(=O)NC2(CCCC2)C1=O)Nc1ccccc1F
    -3.4%, 0%, -2%, -1
Cc1nn2c(N3CCCC3)cc(C(C)C)nc2c1-c1ccccc1
    6.6%, 9%, 0%, -1
COc1ccc(/C=c2\sc3nc(=O)c(C)nn3c2=O)c(OC)c1
    ?, -16%, -3%, -12
O=C(O)c1cn[nH]c1-c1cccc([N+](=O)[O-])c1
    -2.7%, 13%, 1%, 1
Cc1cc(-n2c(SCC(=O)Nc3ccc(F)c(F)c3)nc3n[nH]c(C)c3c2=N)ccc1Cl
    0.9%, 48%, -3%, nt
N#Cc1ccc(Sc2nc3ccccc3[nH]2)cc1C#N
    3.6%, -5%, 0%, 1
Cc1ccc(NC(=O)C2OCCc3ccccc32)cc1C (stereo unspecified)
    0.5%, 4%, -53%, -4
CC1CCCC(NC(=O)CNCc2ccccc2F)C1C (stereo unspecified)
    -0.7%, -10%, -8%, 0
CCOC(=O)N1CCC(N2Cc3cccc(C(=O)NCc4ccc(C)cc4)c3C2=O)CC1
    2.9%, -5%, 1%, -9
CNC(=O)NC(=O)C(C)OC(=O)c1ccc(Cl)c(S(=O)(=O)Nc2ccc(F)cc2)c1 (stereo unspecified)
    -0.3%, -5%, -7%, -11
Clc1ccc(Cc2nnc(-c3ccccc3Br)o2)cc1
    1.4%, -13%, -61%, -4
O=C(O)CN(C1CCCCC1)S(=O)(=O)c1ccc(F)cc1
    2.2%, 4%, -2%, -20
